NPR1 antag: Natriuretic polypeptide receptor (hNpr1) antagonism - Primary qHTS; 76,000 tested, 1.6% active; Atrial natriuretic peptide receptor 1 (Homo sapiens), P16066; Potency, µM (titrated, usually from 46.3 µM), for the others: at the highest dose activity change, negative = inhibition, actives largely listed as inhibitors; AID 1347048, 2019; HEK293 hNpr1 GloSensor cGMP, ANP-stimulated luminescence; active = well fitted inhibition curve with a large enough effect; inconclusive = small, poorly fitted or top-dose-only effect; inactive = no such curve, though single readings can be large or run the other way;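 note: nearly all actives have a fitted effect of over 60% in size; nearly all hits also lower the signal before the agonist is added; a reference antagonist and vehicle were the controls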
Target sequence (P16066 whole entry, looked up): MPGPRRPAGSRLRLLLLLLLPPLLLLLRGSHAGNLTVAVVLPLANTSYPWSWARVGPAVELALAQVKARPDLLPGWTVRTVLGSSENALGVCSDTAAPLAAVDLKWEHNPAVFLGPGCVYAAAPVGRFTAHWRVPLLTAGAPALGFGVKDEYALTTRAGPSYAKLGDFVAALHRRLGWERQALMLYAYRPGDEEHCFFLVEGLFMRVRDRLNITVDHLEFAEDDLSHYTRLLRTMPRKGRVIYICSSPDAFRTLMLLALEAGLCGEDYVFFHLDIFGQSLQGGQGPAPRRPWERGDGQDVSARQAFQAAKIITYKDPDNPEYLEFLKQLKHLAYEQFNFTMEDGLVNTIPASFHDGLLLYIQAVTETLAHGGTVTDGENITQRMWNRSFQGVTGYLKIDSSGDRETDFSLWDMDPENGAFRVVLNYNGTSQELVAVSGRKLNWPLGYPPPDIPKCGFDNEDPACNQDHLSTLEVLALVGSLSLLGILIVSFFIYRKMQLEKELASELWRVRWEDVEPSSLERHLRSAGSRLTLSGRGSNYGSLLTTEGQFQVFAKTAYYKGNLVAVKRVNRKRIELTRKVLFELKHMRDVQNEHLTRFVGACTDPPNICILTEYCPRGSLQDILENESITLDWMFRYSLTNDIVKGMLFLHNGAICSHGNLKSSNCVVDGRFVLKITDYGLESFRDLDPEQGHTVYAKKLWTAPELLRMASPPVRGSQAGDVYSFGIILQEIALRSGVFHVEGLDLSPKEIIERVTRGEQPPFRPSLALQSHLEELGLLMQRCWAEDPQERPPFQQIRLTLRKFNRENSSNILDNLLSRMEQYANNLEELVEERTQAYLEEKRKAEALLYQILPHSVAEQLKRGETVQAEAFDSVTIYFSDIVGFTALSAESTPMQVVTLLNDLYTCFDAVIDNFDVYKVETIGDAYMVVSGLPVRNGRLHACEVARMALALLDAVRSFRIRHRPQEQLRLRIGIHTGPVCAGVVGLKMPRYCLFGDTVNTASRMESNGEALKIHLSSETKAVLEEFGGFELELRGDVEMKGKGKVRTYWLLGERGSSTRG
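HEK293 cells stably expressing human Npr1 and cGMP GloSensor pGS-40F, loaded 2 h with 2% GloSensor reagent, given compound 30 min at room temperature. Luminescence read before and 20 min after 0.1 nM hNppA.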
* marks the source's active call; other numbers are inactive results; [ ] = dose if it differs, or a comment. % is set by controls: 0 for no effect and ±100 for the full control effect; potency is the fitted concentration of half-maximal effect.

What do the screens show for `COc1ccc(NC(=O)Cn2c(N(C)Cc3ccccc3)nc(C)cc2=O)cc1Cl`?
NPR1 antag: 11µM*

Results for O=C1NCCN(Cc2ccccc2)C1CC(=O)N1CCN(c2ccccc2)CC1 (configuration not stated) ?
NPR1 antag: 6%

How did COc1ccc(-c2cc(-c3c(C)noc3C)c3cncn3c2)cc1 do in these assays?
NPR1 antag: -3%[70.6 µM]

What do the screens show for `COc1ccc(-c2cnc([C@@H]3COCCN3Cc3ccc(NC(C)=O)cc3)[nH]2)cc1`?
NPR1 antag: 1%[70.6 µM]

How did O=C(NC(C(=O)N1CCCCC1)C1CCN(C(=O)c2ccc(Cl)cc2)CC1)c1ccccc1 (configuration not stated) do in these assays?
NPR1 antag: -7%

What do the screens show for `CCOCC(=O)N1CCc2n[nH]c(=O)n2CC1`?
NPR1 antag: 3%

What do the screens show for `COC1CN(c2cccc(F)c2)C12CCN(C(=O)c1sc(C)nc1C)CC2` (configuration not stated)?
NPR1 antag: -3%

Results for O=C([C@H]1C[C@H](Oc2cccnc2)CN1C(=O)NC1CCCCC1)N1CCOCC1 ?
NPR1 antag: -13%

Results for O=C(CCc1cc2ccccc2[nH]c1=O)N1CCCCC1 ?
NPR1 antag: -1%

Results for CC(=O)N1C[C@@H](C(=O)NCCc2c(C)noc2C)[C@H](c2nc(C)no2)C1 ?
NPR1 antag: 3%

What do the screens show for `C=CCc1ccccc1OCCN(C)Cc1nc(C)ccc1O`?
NPR1 antag: 0%

What do the screens show for `COc1cccc(Nc2ncc3c(n2)C(C)(C(=O)NCC2CC2)CC3)c1` (configuration not stated)?
NPR1 antag: -24%[70.6 µM]

What do the screens show for `C[C@H]1CN(S(=O)(=O)c2cccc(F)c2)C[C@@H]1c1nc(-c2ccccc2)no1`?
NPR1 antag: -16%

What do the screens show for `COc1ccccc1CN1CCC2(CC1)COCCN2C(=O)OCc1ccccc1`?
NPR1 antag: -15%[70.6 µM]

How did COCCNC(=O)[C@@H]1C[C@H](Oc2ccccc2)CN1S(=O)(=O)c1c(C)noc1C do in these assays?
NPR1 antag: 0%

How did Cc1noc(C)c1[S+](=O)([O-])N1CC2(C1)NC(=O)c1ccccc1O2 do in these assays?
NPR1 antag: 14%[70.6 µM]

Results for COc1ccccc1CCC(=O)N1CCCC(c2[nH]ccc2C(N)=O)C1 (configuration not stated) ?
NPR1 antag: 1%

What do the screens show for `Cc1cc(CNC(=O)c2ccc3c(c2)n(CC2CC2)c(=O)n3C2CCCCC2)on1`?
NPR1 antag: 5.6µM*

How did Cc1ccc(-n2cccc2CC(=O)NCc2ccc3c(c2)OCO3)cc1 do in these assays?
NPR1 antag: -19%

What do the screens show for `C=CCNC(=O)N[C@H]1[C@H](O)[C@@H](Oc2ccccc2)[C@@H]2OC[C@H]1O2`?
NPR1 antag: 2%[70.6 µM]

What do the screens show for `CC(C)c1ccc(NC(=O)N2CCc3[nH]c4ccc(F)cc4c3C2)cc1`?
NPR1 antag: -3%

How did O=C(O)C[C@@H]1CCN(S(=O)(=O)c2cccs2)C[C@@H]1CC1=NCCc2ccccc21 do in these assays?
NPR1 antag: 1%[70.6 µM]

How did Cc1cc(NC(=O)Cn2ccn3nc(-c4ccccc4)c(CO)c3c2=O)n[nH]1 do in these assays?
NPR1 antag: -1%

Results for COCC1CN(C(=O)CCc2ccccc2OC)CC12CCNCC2 (configuration not stated) ?
NPR1 antag: -1%

What do the screens show for `Cc1nc(C)n(CCCNC(=O)C2CCN(C(=O)C3CCC3)CC2)n1`?
NPR1 antag: 0%

What do the screens show for `COc1cccc(Nc2ncc(-c3c(C)noc3C)c3c2OCC3)c1`?
NPR1 antag: 3%[70.6 µM]

Results for CC1(c2cccnc2)N(CC2CC2)C(=O)OC12CCN(C(=O)c1ccc(Oc3ccccc3)cc1)CC2 (configuration not stated) ?
NPR1 antag: -13%

How did COc1ncccc1-c1cnc2[nH]cc(CC(=O)Nc3ccncc3)c2c1 do in these assays?
NPR1 antag: inconclusive

How did O=C1CC(c2ccccc2)N(Cc2ccncc2)CCCN(C(=O)NCCc2ccccc2)CCN1 (configuration not stated) do in these assays?
NPR1 antag: -4%

Results for O=C(NCc1nnc2ccc(-c3ccc(F)cc3)nn12)c1ccc(F)cc1Cl ?
NPR1 antag: -9%

Results for CCn1cnnc1CC1CCN(C(=O)c2ccc3cc[nH]c3c2)C1 (configuration not stated) ?
NPR1 antag: -6%

What do the screens show for `COCC(=O)NC[C@H]1OC[C@@H](NCc2ccccc2F)[C@@H]1O`?
NPR1 antag: 11%[70.6 µM]

Results for Cc1nc(-c2cnccn2)n(CC(=O)Nc2cccc(F)c2)c(=O)c1C ?
NPR1 antag: -17%

What do the screens show for `COCCN1CCCCCC(O)c2cc(C(=O)N3CCN(c4ccccc4F)CC3)ccc21` (configuration not stated)?
NPR1 antag: -14%

Results for N#Cc1ccccc1CN1CCc2nc(N3CCOCC3)[nH]c(=O)c2CC1 ?
NPR1 antag: 0%

Results for COc1cccc([S+](=O)([O-])N2CCC3(CC2)NC(=O)c2ccccc2O3)c1 ?
NPR1 antag: inconclusive

How did CN(C)c1cccc(C(=O)NC2CCN(c3cc(-c4ccccc4)[nH]n3)C2)c1 (configuration not stated) do in these assays?
NPR1 antag: -26%

What do the screens show for `NC(=O)c1cccc(-c2n[nH]c3c2CC(=O)N(CCOc2ccccc2)C3)c1`?
NPR1 antag: -20%[70.6 µM]

How did O=C(Cc1c[nH]c2ccccc12)N1CCCN(c2cc(-c3ccc(Cl)cc3)[nH]n2)CC1 do in these assays?
NPR1 antag: inconclusive

How did O=C(CCc1nnn2c1CN(C(=O)c1ccccc1F)CC2)NC1CC1 do in these assays?
NPR1 antag: -1%

How did COC[C@H]1CCCN1[C@@H]1[C@H](O)[C@H](CO)O[C@@H]1CNC(=O)Nc1cccc(Cl)c1 do in these assays?
NPR1 antag: -10%

Results for O=C1CCN(S(=O)(=O)c2ccccc2)CCCN(Cc2ccccn2)CCN1 ?
NPR1 antag: 2%

How did Cc1ccc(C(=O)N[C@H]2CO[C@H]3[C@@H]2OC[C@H]3OC(=O)Nc2ccccc2)cc1 do in these assays?
NPR1 antag: inconclusive

What do the screens show for `Cc1nc2ccc(C(=O)N3CCC(Cn4cc(CO)nn4)CC3)cc2nc1C`?
NPR1 antag: -1%

How did CCN(CC)C(=O)C[C@@H]1c2nc(NC(=O)c3ccc(F)cc3)sc2C[C@@H]2[C@](C)(CO)[C@H](O)CC[C@]21C do in these assays?
NPR1 antag: -9%

What do the screens show for `CCn1ccc2sc(C)c(C(=O)NCc3ccccc3C)c2c1=O`?
NPR1 antag: -10%

How did CC(C(=O)NCC1CCN(Cc2ccccc2F)CC1)C1CCOCC1 (configuration not stated) do in these assays?
NPR1 antag: -2%

How did COC(=O)c1cccc(NC(=O)c2cnc(-c3ccc(F)cc3)nc2-c2ccncc2)c1 do in these assays?
NPR1 antag: -27%

What do the screens show for `COCCC1(NC(=O)C2CC2)CCN(C(=O)C2(c3ccccc3)CC2)CC1`?
NPR1 antag: -1%

What do the screens show for `COc1cccc(NC(=O)N[C@H]2C[C@@H](C(=O)N(C)CC(N)=O)N(C(=O)c3cnccn3)C2)c1`?
NPR1 antag: -1%

Results for COc1ccc(-c2nc(C)nc3c2CN(C(C)=O)CC3)cc1 ?
NPR1 antag: -13%[70.6 µM]

How did Clc1cc(NCCC2CCCCC2)n2nccc2n1 do in these assays?
NPR1 antag: -17%[70.6 µM]

Results for CC1(C)[C@H]2CC[C@@H](CN[S+](=O)([O-])c3ccccc3)[C@@H]1C2 ?
NPR1 antag: -26%[70.6 µM]

Results for O=C(CCCc1ccccc1)N1CC2CC(C1)[C@H]1CCCC(=O)N1C2 (some centres not stated) ?
NPR1 antag: 0%

Results for CCNC(=O)N(C1CC1)C1CCOC2(CCN(C(=O)CC3CCCC3)CC2)C1 (configuration not stated) ?
NPR1 antag: 2%

Results for N#Cc1ccc(C(=O)N2C[C@@H](COc3ccccc3)[C@H](C(N)=O)C2)cc1 ?
NPR1 antag: -9%

How did CN(CC1CCOCC1)C(=O)c1ccc(Br)o1 do in these assays?
NPR1 antag: 0%

How did CCc1ccc(NC(=O)c2ccc3c(c2)N(CC)C2CCCCCN2C3=O)cc1 (configuration not stated) do in these assays?
NPR1 antag: -9%

How did CCn1c(-c2ccccc2)nn(CC(=O)N(C)C(C)c2ccon2)c1=O (configuration not stated) do in these assays?
NPR1 antag: -2%

What do the screens show for `COc1ccccc1CCC(=O)N1C[C@@H](CO)[C@H](c2ccncc2)C1`?
NPR1 antag: 2%

What do the screens show for `COC(=O)c1c(NC(=O)c2ccccc2)c2cc(NC(C)C)cnc2n1CC1CCCO1` (configuration not stated)?
NPR1 antag: 9%

What do the screens show for `COc1ccc(C(=O)N2CCCn3nc(CCC(=O)NC4CC4)cc3C2)o1`?
NPR1 antag: 10%

How did Cc1ccc(C)c(S(=O)(=O)N2CCCN(C)c3ccccc32)c1 do in these assays?
NPR1 antag: -5%

What do the screens show for `CNC(=O)[C@@H]1CN(C(=O)CCc2ccccc2OC)C[C@H]1COC`?
NPR1 antag: 4%

Results for COc1cccc(C(=O)N2CCC(N3C(=O)CCC3C(=O)NCc3ccccc3)CC2)c1C (configuration not stated) ?
NPR1 antag: -14%

What do the screens show for `CS(=O)(=O)N1CCc2[nH]cnc2C12CCN(C(=O)C1CCCC1)CC2`?
NPR1 antag: 9%

Results for Cc1noc(C)c1-c1cc2cc(CN(C)C)oc2c(Nc2ccn(C)n2)n1 ?
NPR1 antag: 1%[70.6 µM]

What do the screens show for `COCCNC(=O)CN1CN(c2ccccc2)C2(CCN(C(=O)C3CCCCC3)CC2)C1=O`?
NPR1 antag: 1%

How did Cc1nccn1-c1ccc(CNC(=O)C(c2ccc(F)cc2)N(C)C)cc1 (configuration not stated) do in these assays?
NPR1 antag: 2%

How did CCc1nnc([C@@H]2CC(F)(F)CN2C(=O)c2occc2C)o1 do in these assays?
NPR1 antag: 0%

How did FC(F)(F)c1ccc2c(c1)nc1n2[C@@H](CNC2CCC2)COC1 do in these assays?
NPR1 antag: -1%[70.6 µM]

What do the screens show for `C=CCOC(=O)Nc1nc2c(s1)C[C@@H]1[C@](C)(CO)[C@H](O)CC[C@@]1(C)[C@@H]2CC(=O)NC1CCCCC1`?
NPR1 antag: -10%

How did COC[C@@H]1CN(c2ncccn2)C[C@H]1C(=O)Nc1ccc(OC)nc1 do in these assays?
NPR1 antag: -11%

Results for COC(=O)C1=C(C)N=C2SC=C(CC(=O)NCc3ccccc3)N2C1c1ccccc1C (configuration not stated) ?
NPR1 antag: -5%

Results for COc1ccc(-c2nc3c(c(=O)[nH]2)CCN(C(=O)c2ccccc2OC(F)(F)F)C3)cc1 ?
NPR1 antag: 4%

What do the screens show for `COC(=O)C1=C(C)N(Cc2cccc([N+](=O)[O-])c2)C(=O)CC1c1ccccc1Cl` (configuration not stated)?
NPR1 antag: -7%

Results for Cc1noc(-c2ccc(C(C)(C)C)cc2)c1C(=O)NCc1cc(F)cc(F)c1 ?
NPR1 antag: 2%

Results for COc1nc2nc(CC3CC3)n(C)c2cc1-c1ccc(N2CCOCC2)cc1 ?
NPR1 antag: -26%[70.6 µM]

How did CS(=O)(=O)N1CCC2(CC1)CC(CC(=O)NCCCn1cccn1)CCO2 (configuration not stated) do in these assays?
NPR1 antag: 2%

What do the screens show for `COc1cccc(-c2ncc3c(n2)OCCN(CC2CC2)C3=O)c1OC`?
NPR1 antag: 3%[70.6 µM]

An excerpt from the list above:
Results for COc1cccc(C(=O)N2CCC(N3C(=O)CCC3C(=O)NCc3ccccc3)CC2)c1C (configuration not stated) ?
NPR1 antag: -14%

What do the screens show for `CS(=O)(=O)N1CCc2[nH]cnc2C12CCN(C(=O)C1CCCC1)CC2`?
NPR1 antag: 9%

Results for Cc1noc(C)c1-c1cc2cc(CN(C)C)oc2c(Nc2ccn(C)n2)n1 ?
NPR1 antag: 1%[70.6 µM]

What do the screens show for `COCCNC(=O)CN1CN(c2ccccc2)C2(CCN(C(=O)C3CCCCC3)CC2)C1=O`?
NPR1 antag: 1%

How did Cc1nccn1-c1ccc(CNC(=O)C(c2ccc(F)cc2)N(C)C)cc1 (configuration not stated) do in these assays?
NPR1 antag: 2%

How did CCc1nnc([C@@H]2CC(F)(F)CN2C(=O)c2occc2C)o1 do in these assays?
NPR1 antag: 0%

How did FC(F)(F)c1ccc2c(c1)nc1n2[C@@H](CNC2CCC2)COC1 do in these assays?
NPR1 antag: -1%[70.6 µM]

What do the screens show for `C=CCOC(=O)Nc1nc2c(s1)C[C@@H]1[C@](C)(CO)[C@H](O)CC[C@@]1(C)[C@@H]2CC(=O)NC1CCCCC1`?
NPR1 antag: -10%

How did COC[C@@H]1CN(c2ncccn2)C[C@H]1C(=O)Nc1ccc(OC)nc1 do in these assays?
NPR1 antag: -11%

Results for COC(=O)C1=C(C)N=C2SC=C(CC(=O)NCc3ccccc3)N2C1c1ccccc1C (configuration not stated) ?
NPR1 antag: -5%

(further entries)
How did Oc1ccccc1CN1C[C@H](O)C[C@H]1c1nc(-c2ccccc2)no1 do in these assays?
NPR1 antag: 0%[70.6 µM]

Results for COCC(=O)N[C@H]1C[C@H]2C(=O)NC[C@@H](CCC(=O)NCc3ccccc3)N2C1 ?
NPR1 antag: 2%[70.6 µM]

What do the screens show for `COC[C@@H]1CN(C(=O)c2cc(C3CC3)[nH]n2)C[C@H]1c1nc(C2CC2)no1`?
NPR1 antag: -5%

What do the screens show for `Cc1ccc(C(=O)N2CCC(n3cc(-c4nc(C(C)C)no4)nn3)CC2)s1`?
NPR1 antag: 0%

How did Cc1nn2c(c1-c1ccnn1C(C)C)N(Cc1ccc3c(c1)CCO3)CCC2 do in these assays?
NPR1 antag: -2%[70.6 µM]

How did COCC1CN(C(C)=O)CC12CCN(C(=O)c1cccc(Cl)c1)CC2 (configuration not stated) do in these assays?
NPR1 antag: -6%

From PubChem BioAssay

A portion of the library, so the mix of outcomes need not match the whole.
